Screening data deposited in PubChem BioAssay by several laboratories.
Hsc70 ATP site = Hsc70 inhibitors, probe displacement, primary screen, biochemical, fluorescence polarization (AID 568); Hsc70 fluorescence polarization, probe displacement; higher % means a stronger effect; strong numbers were not always called active; displacement, % at 20 µM; hits with a dose series show IC50 in µM; 83,000 tested, under 10 active;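 active = displacement above 50% without optical interference and an IC50 on retest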;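 also: ATPase domain with a fluorescein-tagged ATP probe; 0% = vehicle and 100% = excess ADP; read after one hour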
MT1-MMP reporter = inhibitors of MT1-MMP promoter transcription, cell-based, luciferase reporter, luminescence (AID 618); MT1-MMP promoter luciferase reporter cells, luminescence; calls from a first round at 10 µM; hits with a dose series show EC50 in µM; actives 0.62% (n = 87,000);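 active = over half of the reporter light lost at 10 µM or EC50 under 50 µM; inactive = the rest and hits that failed the dose series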;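 also: actives suppress MT1-MMP promoter-driven transcription so potencies describe inhibitors; HT1080 fibrosarcoma cells; overnight exposure; toxic or luciferase-blocking compounds were not removed from the actives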
WNV NS2B-NS3 inh = inhibitors of WNV NS2B-NS3 protease, primary screen, biochemical, fluorogenic substrate; fluorogenic substrate Ex360/Em465; hits give low values; actives 0.18% (n = 65,000); z-score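 (tested at a level between 10 and 100 µM)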;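 active = z-score at -3 or under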;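 also: score is relative to mean and spread of the compound wells of a plate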
Target sequence (P06935 1371-1501 limits assumed): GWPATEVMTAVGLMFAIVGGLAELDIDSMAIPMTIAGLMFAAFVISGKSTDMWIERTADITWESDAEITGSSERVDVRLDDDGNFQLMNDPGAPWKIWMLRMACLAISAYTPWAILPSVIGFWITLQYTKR
Target sequence (P06935 1502-1679 limits assumed): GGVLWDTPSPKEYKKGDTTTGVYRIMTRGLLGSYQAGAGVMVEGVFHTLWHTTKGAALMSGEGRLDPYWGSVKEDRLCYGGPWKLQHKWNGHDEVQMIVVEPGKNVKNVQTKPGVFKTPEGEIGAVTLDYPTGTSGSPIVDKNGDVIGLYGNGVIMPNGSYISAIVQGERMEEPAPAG
* marks the source's active call; other numbers are inactive results; i = inactive; . = not tested or not shown; + = active, no number. A portion of the library (hit frequency here may not be typical).

SMILES	Hsc70 ATP site	MT1-MMP reporter	WNV NS2B-NS3 inh
CC(NC(=O)NC1CCCCC1)C(c1cccs1)N1CCN(C)CC1 (stereo not given)	-1.5%	i	0.33
CC(C)COc1cc(=O)[nH]c(SCC(C)C)n1	-0.3%	i	-0.74
O=C(Nc1ccc2nn(-c3ccccc3)nc2c1)c1ccc2c(c1)OCO2	5.2%	i	0.23
Cc1ccc(-c2ccc(C3C(C#N)=C(N)Oc4n[nH]c(C)c43)o2)cc1 (stereo not given)	1.6%	i	.
Cc1ccc(C(=O)CSc2nnc(COc3cccc(C)c3)o2)cc1	5.2%	i	0.04
COc1ccc2[nH]c(=O)c(-c3noc(-c4ccccc4)n3)cc2c1	-0.6%	i	-0.85
COC(=O)c1ccccc1NC(=O)COC(=O)c1ccc(C)c(NC(=O)c2ccco2)c1	0.1%	i	-0.69
CCNc1cc(=O)n(C)c(=O)n1C	-8.3%	i	0.43
N#Cc1nc(Cc2ccccc2)oc1N1CCC(C(N)=O)CC1	8.2%	i	-0.71
CC1(C)CC2CC(C)(CN2C(=O)COC(=O)Cn2[nH]c(=O)c3ccccc3c2=O)C1 (stereo not given)	-1.4%	i	-0.39
CC(=O)N1CCc2cc(S(=O)(=O)NCCC(=O)Nc3cccc(C)c3)ccc21	6.9%	i	0.03
Cc1cccn2c(=O)c3cc(C(=O)NCCN4CCOCC4)c(=N)n(CCc4ccccc4)c3nc12	5.6%	i	0.97

Reprinted from the part before: four compounds, then new ones.
SMILES	Hsc70 ATP site	MT1-MMP reporter	WNV NS2B-NS3 inh
N#Cc1nc(Cc2ccccc2)oc1N1CCC(C(N)=O)CC1	8.2%	i	-0.71
CC1(C)CC2CC(C)(CN2C(=O)COC(=O)Cn2[nH]c(=O)c3ccccc3c2=O)C1 (stereo not given)	-1.4%	i	-0.39
CC(=O)N1CCc2cc(S(=O)(=O)NCCC(=O)Nc3cccc(C)c3)ccc21	6.9%	i	0.03
Cc1cccn2c(=O)c3cc(C(=O)NCCN4CCOCC4)c(=N)n(CCc4ccccc4)c3nc12	5.6%	i	0.97
COC(=O)c1nc2cc(C)ccn2c1F	-2.2%	i	0.19
COc1ccccc1NC(=O)CN(Cc1ccccc1)S(C)(=O)=O	0.7%	i	.
CC(C)N(CCCNC(=O)C1CCN(S(=O)(=O)N2CCOCC2)CC1)Cc1ccccc1	7.7%	i	-0.83
CC(=O)C1=NN(c2ccccc2)C(c2cccs2)N1c1ccccc1 (stereo not given)	4.9%	i	.
CCOc1ccccc1NC(=O)Cn1cnc2c(nnn2-c2cccc(OC)c2)c1=O	-3.7%	i	-1.3
O=c1c2ccccc2cnn1-c1ccc(Br)cc1	2.1%	i	.
CCN(CC)c1ncnc2sc(C(=O)N3CCN(c4ccc(OC)cc4)CC3)c(C)c12	-4.3%	i	-0.52
CCN1C(=O)CC(N2CCOCC2)C1=O (stereo not given)	-1.3%	i	.
COc1ccc(CCNC(=O)CN2CCN(c3cccc(Cl)c3)CC2)cc1OC	7.8%	i	-0.11
O=C(NCc1cccnc1)C1CCCN(Cc2cnn(-c3ccccc3)c2-n2cccc2)C1 (stereo not given)	7.0%	i	.
N#Cc1c(N)nc(SCc2ccncc2)c(C#N)c1-c1cccs1	3.0%	i	-0.83
O=C(NCc1ccccc1)NC1(C(=O)N2CCCC2)CCCCC1	-1.6%	i	0.96
CCN1CCCC1CNCc1ccc(Cl)cc1Cl (stereo not given)	1.1%	i	0.28
O=C(CN1CCN(Cc2ccc(Cl)cc2)C1=O)NCCN1CCCC1	5.1%	i	-0.36
CCC1S/C(=C(\C#N)C(=O)NCc2ccco2)N(c2ccc(F)cc2)C1=O (stereo not given)	-2.3%	i	-0.24
CCOC(=O)c1cc2sc(C)cc2n1CC(=O)Nc1cccc(C)c1C	-1.4%	i	-1.1
O=C(Nc1cccnc1)C1COc2ccccc2O1 (stereo not given)	2.7%	i	.
CN(C)c1ccc(CN(C(=O)c2ccco2)C2CCS(=O)(=O)C2)cc1 (stereo not given)	-3.9%	i	0.04
O=C(c1nc2nc(-c3cccs3)cc(C(F)(F)F)n2n1)N1CCN(Cc2ccccc2)CC1	-1.2%	i	.
Cc1nc2cc(NC(=O)NCc3ccccc3)ccc2o1	-2.1%	i	.
COc1ccc2c(c1OC)C(=O)OC2CC(=O)c1ccc2c(c1)OCO2 (stereo not given)	-0.3%	i	-1.1
O=C(CSCc1ccc(F)cc1)N1CCN(c2ccccc2)CC1	-1.2%	i	.
Cc1cc(C)cc(-n2nnc(C(=O)NCc3ccc(Cl)cc3)c2N)c1	-0.3%	i	-1.2
CCOC(=O)COc1ccc(N)cc1CC(NC(C)=O)(C(=O)OCC)C(=O)OCC	-1.1%	i	2.5
Cc1ccc(OC(=O)c2cc3ccccc3o2)cc1	-0.4%	i	.
CC(C)Sc1nc2c(cnn2-c2ccc(F)cc2)c(=O)[nH]1	3.1%	i	0.2
CC1(C)Cc2ccccc2C(/C(=N/O)C(N)=O)=N1	0.0%	i	1.7
Cn1cccc1C(=O)NC(=O)COC(=O)c1ccccc1Sc1ccccc1C#N	-5.6%	i	1.1
O=C1C(SC(F)(F)C(F)F)=C(C(F)(F)F)OC2C3C=CC(C3)C12 (stereo not given)	-8.9%	i	-0.3
O=C(COc1ccccc1)Nc1ccc2c(c1)nc1n2CCSC1	-8.3%	i	-0.39
Cc1ccccc1-n1nnnc1SCC(=O)Nc1ccc(S(=O)(=O)N2CCCC2)cc1	0.1%	i	0.73
CCc1ccc2[nH]c(=O)c(C(c3nnnn3CCOC)N3CCN(c4ccc(F)cc4)CC3)cc2c1 (stereo not given)	-5.3%	i	-0.54
COc1cc(NS(=O)(=O)c2ccc(NS(=O)(=O)c3ccccc3)cc2)nc(OC)n1	3.1%	i	0.4
COc1cc(NC(=O)c2ncn[nH]2)cc(OC)c1OC	3.6%	i	1.9
Cc1nnc(SCCn2c(N3CC(C)CC(C)C3)nc3c2c(=O)n(C)c(=O)n3C)s1 (stereo not given)	-0.2%	i	0.9
Clc1ccccc1Cn1nnc2c(Nc3ccccc3)ncnc21	-0.3%	i	-0.38
CC1CCN(C(=O)CN(C)S(=O)(=O)c2cccc3nsnc23)CC1	-4.7%	i	2
COc1ccccc1-n1c(SCC(=O)O)nnc1-c1ccc(S(=O)(=O)N2CCCCC2)cc1	2.8%	i	1
CN(C)c1nc(N2CCCCC2)nc(N2CCCCC2)n1	2.3%	i	-1.6
CCN(CC)CCCN1C(=O)C(O)=C(C(=O)c2ccco2)C1c1ccc(C)o1 (stereo not given)	-1.0%	i	-0.88
O=c1oc2ccccc2n1CCCOc1ccccc1	4.1%	i	0.84
CCOc1ccc(NS(=O)(=O)c2ccc(OCC)c3ncccc23)cc1	1.5%	i	.
Cc1c(C(=O)N2CCOCC2)oc2ccc(S(=O)(=O)N3CCCC3)cc12	-0.6%	i	0.38
O=C1C2CC=C(Cl)CC2C(=O)N1CCCCCCN1C(=O)C2CC=C(Cl)CC2C1=O (stereo not given)	46%	i	.
COCCn1c(C)cc(C(=O)COC(=O)c2ccc(-n3nc(C)cc3C)cc2)c1C	3.4%	i	2.3
CC1=NC(=O)C(N=Nc2ccccc2C)N1c1ccccc1 (stereo not given)	0.5%	i	.
Cc1ccc(C2c3c(oc4ccc(Cl)cc4c3=O)C(=O)N2CCCN2CCOCC2)o1 (stereo not given)	1.1%	i	1.1
CCOc1ccc(C(=O)c2ccc(OCC)c(N)c2)cc1N	7.0%	i	-0.47
COc1ccccc1N1CCN(S(=O)(=O)Cc2ccccc2Cl)CC1	-4.1%	i	-0.5
COc1cc(CNC(=O)c2ccc(Cn3nc(C)c(Cl)c3C)o2)cc(OC)c1	-2.1%	i	0.86
COc1cc(C)c(S(=O)(=O)NCc2cccs2)cc1C	1.8%	i	0.86
S=C(c1ccc(-c2cccc(Cl)c2)o1)N1CCOCC1	-4.6%	i	0.27
CN(C)CCNC(=O)c1ccccc1	1.6%	i	.
Cc1cc(C)n(-c2ccc(C(=O)Nc3ccc(N4CCOCC4)cc3)cc2)n1	7.2%	i	.
O=C(CSc1nnnn1-c1cccc2c1CCCC2)N1CCCC1	0.7%	i	.
O=C1CSC(c2cccc(F)c2)N1c1ccc(O)cc1 (stereo not given)	2.4%	i	.
CCN1CCc2c(C#N)c(N3CCCCC3)nc(NCc3ccccc3)c2C1	9.3%	i	1.2
c1ccc2oc(-c3nn4c(Cn5cnc6ccccc65)nnc4s3)cc2c1	0.5%	i	0.69
CCCC(NS(=O)(=O)c1ccc(OC)cc1)C(=O)O (stereo not given)	-4.6%	i	0.24
Cc1cccc(N(C)C(=O)CCS(=O)(=O)c2cccc3nonc23)c1	7.2%	i	-1.6

(more compounds)
Second line of a record – Hsc70 ATP site | MT1-MMP reporter | WNV NS2B-NS3 inh
- COc1ccc(NC(=O)CSc2nnc(Cn3cnc4ccccc43)n2C)cc1
  -0.2% | i | .
- Fc1ccccc1C(c1nnnn1Cc1ccc2c(c1)OCO2)N1CCN(Cc2ccco2)CC1 (stereo not given)
  15% | i | -1.3
- COc1ccc(N(CC(=O)N2CCc3ccccc32)S(=O)(=O)c2c(C)n[nH]c2C)cc1
  2.2% | i | -1.1
- CCc1ccc(-c2cc(C(=O)Nn3cnnc3)c3ccccc3n2)cc1
  0.3% | 2.1µM* | .
- COc1cccc2cc(C(=O)C3=C(O)C(=O)N(CCCN(C)C)C3c3ccncc3)oc12 (stereo not given)
  -2.0% | i | -0.21
- COc1cccc(-c2cc(C(=O)N3CCCCC3C)no2)c1 (stereo not given)
  -0.1% | i | -2
- Cc1[nH]c(=O)[nH]c(=O)c1S(=O)(=O)NCC12CC3CC(CC(C3)C1)C2
  6.9% | i | -0.21
- c1ccc(-c2noc(-c3cccc4ccccc34)n2)nc1
  0.7% | + | -0.89
- O=C(O)CSc1nnc(CNc2cccc(C(F)(F)F)c2)n1Cc1ccco1
  3.9% | i | 0.45
- Nc1ccccc1NC(=O)c1ccccc1N
  -0.4% | i | -1.4
- CCOc1ccccc1Nc1ncccc1C(=O)N1CCCC1
  4.1% | i | -0.84
- Cc1c(NC(=O)C2(c3ccccc3)CCOCC2)c(=O)n(-c2ccccc2)n1C
  -2.0% | i | 0.0064
- O=C(CSc1nnc(-c2cccc(S(=O)(=O)N3CCCCC3)c2)o1)c1ccc[nH]1
  3.2% | i | 0.72
- O=C1CC(c2ccccc2)n2nc(NC(=O)c3ccccn3)nc2N1 (stereo not given)
  -4.6% | i | 0.74
- CCCCN(CCCC)S(=O)(=O)c1ccc(OC)c2ncccc12
  3.6% | i | 0.63
- Cc1cc2c(n1-c1ccc(Br)cc1)CC(C)(C)CC2=O
  1.1% | i | .
- CCOc1ccc(-n2c(Cc3cc(=O)[nH]c(=O)[nH]3)nnc2SCC)cc1
  -4.3% | i | 1.2
- COc1ccc(Cc2nnc(Nc3ccc(C)cc3C)[nH]c2=O)cc1
  1.1% | i | -0.37
- CN1CCN(C(=O)c2ccc(CN3CCOCC3)cc2)CC1
  -0.5% | i | 1.7
- O=C(Nc1ccccn1)NC12CC3CC(CC(C3)C1)C2
  4.4% | i | 0.87
- Cn1c(=O)c2c(SCc3cccc(C(F)(F)F)c3)nc(-c3ccco3)nc2n(C)c1=O
  0.9% | i | 0.73
- O=C(Nc1cccc(F)c1)NC1CCCCC1
  7.4% | i | 0.7
- CN(CCNC(=O)CCNC(=O)Cn1ccc2ccccc2c1=O)Cc1ccccc1
  -3.8% | i | 0.89
- CC(=O)N=c1ncn(CC(COC(C)=O)OC(C)=O)c2nc[nH]c12 (stereo not given)
  5.5% | i | -0.56
- Cc1cc2ccccc2n1CCNC(=O)c1cccs1
  2.0% | i | -0.77
- CCCCN1C(=O)NC(NS(=O)(=O)c2ccc(N)cc2)(C(F)(F)F)C1=O (stereo not given)
  -0.7% | i | .
- Cc1cc(Cl)ccc1OCC(=O)NCCCN1CCOCC1
  1.9% | i | 0.51
- CCOC(=O)N1CCN(C(=O)CSCC(=O)Nc2nc(-c3cccs3)cs2)CC1
  1.8% | i | -1.5
- CC(C)Cc1nc(C(N)=O)c2[nH]c(=O)n(-c3ccc(F)cc3)c2n1
  -4.1% | i | -0.9
- CCc1ccccc1NC(=O)CN1CCC(NC(=O)COC)CC1
  -1.7% | i | -1.1
- CCC(C)NS(=O)(=O)c1ccc(S(=O)(=O)N2CCCC3(CCCCC3)C2)cc1 (stereo not given)
  1.2% | i | .

Shown as labelled records: two of the compounds above.
> COc1cccc2cc(C(=O)C3=C(O)C(=O)N(CCCN(C)C)C3c3ccncc3)oc12 (stereo not given)
  Hsc70 ATP site = -2.0%
  MT1-MMP reporter = i
  WNV NS2B-NS3 inh = -0.21
> COc1cccc(-c2cc(C(=O)N3CCCCC3C)no2)c1 (stereo not given)
  Hsc70 ATP site = -0.1%
  MT1-MMP reporter = i
  WNV NS2B-NS3 inh = -2
